Source: PubChem (National Center for Advancing Translational Sciences (NCATS))
Cruzain Triton = inhibitors of Trypanosoma cruzi cruzain with detergent; purified cruzain, Z-FR-AMC fluorescence, 0.01% Triton; 200,000 tested, 0.43% active; Potency, µM, inactives show max response, negative = inhibition, usual class: inhibitors; AID 1478; P25779;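 also: plate controls were neutral wells for no effect and buffer without enzyme for full effect; nearly all actives have a fitted effect of over 40% in size; top concentration of the series not given in the record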
Target sequence (P25779 123-467 limits assumed): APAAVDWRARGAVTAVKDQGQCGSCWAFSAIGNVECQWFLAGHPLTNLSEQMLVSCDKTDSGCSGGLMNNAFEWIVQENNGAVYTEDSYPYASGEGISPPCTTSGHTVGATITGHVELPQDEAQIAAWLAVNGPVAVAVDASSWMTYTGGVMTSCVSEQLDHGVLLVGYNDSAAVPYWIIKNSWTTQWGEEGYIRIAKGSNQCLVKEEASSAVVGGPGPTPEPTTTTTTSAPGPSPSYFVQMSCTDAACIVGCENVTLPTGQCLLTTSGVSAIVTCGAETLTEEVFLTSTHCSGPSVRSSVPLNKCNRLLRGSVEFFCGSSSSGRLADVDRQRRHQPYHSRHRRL
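Enzyme 1.5 nM, Z-FR-AMC 2 uM, NaOAc 100 mM pH 5.5, DTT 5 mM, Triton X-100 0.01%; 15 min RT compound preincubation; kinetic ex360/em450, 60 s delta.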
SARS PLpro yeast = SARS-CoV PLP inhibition in yeast; S. cerevisiae expressing SARS-CoV PLpro, growth rescue; control for the full effect not named in the record; Potency, µM (top dose mostly 32.9 µM), for the others: at the highest dose activity, positive = growth rescue; 330,000 tested, 0.19% active; active means well fitted rising curve with a large enough effect; inconclusive means small, poorly fitted or top-dose-only effect; inactive means no such curve, though single readings can be large or run the other way; also: 0% is about no effect; nearly all actives have a fitted effect of over 55% in size; growth read by luminescence after 48 h
Cruzain inh noDet = blocks cruzain activity in detergent-free assay. 200,000 tested, 2.3% active. P25779. Potency, µM, inactives show max response, negative = inhibition, usual class: inhibitors. AID 1476. purified cruzain, Z-FR-AMC fluorescence, no detergent;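 also: plate controls were enzyme without inhibitor for no effect and buffer without enzyme for full effect; nearly all actives have a fitted effect of over 40% in size; top concentration of the series not given in the record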
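Purified cruzain at 1.5 nM, pre-incubated 15 min with compound at room temperature in 100 mM sodium acetate pH 5.5, 5 mM DTT, 0.00005% Triton X-100. Reaction started with 2 uM Z-FR-AMC; AMC fluorescence increase over 60 s gives rate.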
Marburg entry inh = Marburg virus entry inhibition; Marburg virus pseudotyped entry inhibition, cell reporter; control for the full effect not named in the record; about a third of the inactives were read at about 46 µM; Potency, µM (top dose mostly 37.8 µM), inactives show top-dose activity change, negative = inhibition, most hits filed as inhibitors; 300,000 tested, 1.8% active; AID 540276; active = well fitted inhibition curve with a large enough effect; inconclusive = small, poorly fitted or top-dose-only effect, or effect the other way; inactive = flat fitted curve, though single readings scatter; tested in HEK293 cells; about a fifth of its hits are not listed in these tables; also: % is scaled to controls: 0 for no effect and ±100 for the full control effect; luciferase read-out
LASV entry inh = inhibitors of Lassa virus binding or cell entry | Lassa virus pseudotype entry inhibition, cell reporter; control for the full effect not named in the record | Potency, µM (doses to about 37.9 µM), for inactives: at the top dose activity change, negative = inhibition, actives largely listed as inhibitors | 300,000 tested, 1.2% active | AID 540256; active means well fitted inhibition curve with a large enough effect; inconclusive means small, poorly fitted or top-dose-only effect, or effect the other way; inactive means flat fitted curve, though single readings scatter; tested in HEK293 cells; also: % is scaled to controls: 0 for no effect and ±100 for the full control effect; nearly all actives have a fitted effect of over 50% in size; luciferase read-out
NS1 function inh = inhibitors of influenza NS1 protein function | S. cerevisiae slowed by influenza A NS1, growth recovery by OD600 | Potency, µM (titrated, usually from 46.1 µM), for inactives: at the highest dose activity, positive = more growth | 270,000 tested, 0.4% active; active means well fitted rising curve with a large enough effect; inconclusive means small, poorly fitted or top-dose-only effect; inactive means no such curve, though single readings can be large or run the other way; also: nearly all actives have a fitted effect of over 50% in size
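A cell-based growth assay was used: compounds that relieve NS1-induced slow growth of budding yeast raise OD600. Assay medium was yeast nitrogen base with ammonium sulphate and -URA supplement, pH 6.0, with 2% galactose.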
RE007 growth inh = less growth of the S. pombe RE007 Vpr strain | S. pombe RE007 Vpr strain, BacTiter-Glo ATP luminescence, 24 h; control for the full effect not named in the record | Potency, µM (series often up to 92.2 µM), without a hit: at the highest dose activity change, negative = less growth | 360,000 tested, 0.21% active | AID 651644; active = well fitted falling curve with a large enough effect; inconclusive = small, poorly fitted or top-dose-only effect; inactive = no such curve, though single readings can be large or run the other way;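 also: % is scaled to controls: 0 for no effect and ±100 for the full control effect; nearly all actives have a fitted effect of over 50% in size; the assay follows cell death caused by Vpr and the record does not say whether a fall means rescue or toxicity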
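Fission yeast RE007 carrying one integrated HIV-1 vpr copy, seeded at OD 0.01 in PMG+AL medium with 23 nL pinned compound. Grown 24 h at 30 degrees; viability read by BacTiter-Glo luminescence after 5 min.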
2A StopGo = lowers the luciferase signal of an FMDV 2A StopGo reporter; human cells with a luciferase reporter of 2A StopGo recoding; control for the full effect not named in the record; Potency, µM (series often up to 57.9 µM), for the others: top-dose signal change, negative = less light; 410,000 tested, 1.2% active; AID 1159524; active = well fitted falling curve with a large enough effect; inconclusive = small, poorly fitted or top-dose-only effect; inactive = no such curve, though single readings can be large or run the other way; tested in HEK293T cells; also: % is scaled to controls: 0 for no effect and ±100 for the full control effect; nearly all actives have a fitted effect of over 45% in size; luciferase light after 4 h
Starred values were filed as active, the others as inactive; ? = inconclusive; · = no result given; [ ] = dose if it differs, or a comment. Unless noted, calls follow the shape of the dose curve; as a rule, active = well fitted curve in the direction sought with a large enough effect; inconclusive = small, poorly fitted or top-dose-only effect, or another doubt; inactive = no such curve, though single readings can be large; an effect the other way counts as inactive or inconclusive. Potency is read from the fitted curve at half-maximal effect.

Below each SMILES: Cruzain Triton, SARS PLpro yeast, Cruzain inh noDet, Marburg entry inh, LASV entry inh, NS1 function inh, RE007 growth inh, 2A StopGo
C=CCn1c(Cc2ccc(OC)cc2)nnc1SCC(=O)NCCc1ccccc1
    2.5%, 2%, 2%, 0%, -6%, 1%, -10%, -6%
O=C(CSc1cn(CCNC(=O)c2ccccc2)c2ccccc12)NCC1CCCO1 (stereo not given)
    ·, -3%, ·, ·, ·, -1%, -10%, -9%
CC(=O)Oc1ccc2cc(-c3cccnc3)c(=O)oc2c1
    ·, ·, ·, -12%, -21%, ·, 27%, 1%
CC1CC(C)CN(S(=O)(=O)c2ccc3c(c2)NC(=O)C(C)C(=O)N3)C1 (stereo not given)
    ·, 6%, ·, ·, ·, -22%, -6%, -25%
Cc1cc(SCC(=O)OCC(=O)N(C)c2ccccc2)nc2ccccc12
    ·, ·, ·, -13%[46.1 µM], -14%, ·, 5%, -8%
CC(=O)Nc1sc2c(c1C(c1ccc(Cl)cc1)N1CCOCC1)CCCC2 (stereo not given)
    -0.6%, 0%, ?, ?, ?, 19%, 0%, ?
COCCN1Cc2cccc(C(=O)NC(C)CCc3ccco3)c2C1=O (stereo not given)
    ·, -2%, ·, 26%[46.1 µM], -11%[46.1 µM], ·, 38%, 24%
Cn1c(CN2CCCC2)nc2cc(NC(=O)COc3ccccc3)ccc21
    -2.9%, -7%, -3%, 21%[46.1 µM], ?, 0%, 7%, -19%
O=C1OC(c2cccc([N+](=O)[O-])c2)C2(CCCC2)C(=O)C12CCCCC2 (stereo not given)
    -6.8%, -26%, -11%, ?, 2%, 21%, 3%, ?
CCOc1ccccc1C(=O)Nc1cc2c(cc1N1CCOCC1)n(C)c(=O)n2C
    -2.2%, ·, 0%, -13%[46.1 µM], -2%[46.1 µM], ·, ·, -20%
Cn1c(SCC(=O)c2ccccc2)nnc1-c1cnccn1
    3.9%, -7%, 5%, ?, 0%, -15%, -13%, 43%[activator]
O=C(O)c1ccccc1-c1ccccc1C(=O)NCCc1ccccc1
    ·, 9%, ·, ·, ·, 26%, 5%, 0%
CC(=O)NC1CCC(=O)C=C1c1ccccc1 (stereo not given)
    ·, ·, ·, 3%, 21%, ·, 4%, -12%
CCCCc1ccc(NC(=S)NCC2CCCO2)cc1 (stereo not given)
    ·, 0%, ·, -14%[46.1 µM], -3%[46.1 µM], ·, 1%, 12%
CC/C(=C(\c1ccc(O)cc1)c1ccc(OCCN(C)C)cc1)c1ccccc1
    ·, -7%, ·, ·, ·, -34%, 5%, -14%
COc1ccc(C[C@@H]2CN3C(=NC[C@@H]3Cc3ccc(O)cc3)N2C[C@H](C)NC(=O)CCC2CCCCC2)cc1
    ·, 1%, ·, ·, ·, 2%, -27%, -15%
CN(C(=O)COc1ccc(C(C)(C)C)cc1)C1CCS(=O)(=O)C1 (stereo not given)
    -1.9%, 2%, 4%, -1%, 14%, 5%, 6%, ·
N#CCC(=O)Nc1ccc(C(=O)OCC(=O)c2c[nH]c3ccccc23)cc1
    ·, 20%, ·, ?, -21%[46.1 µM], ·, -21%, 6%
CN1C(=O)C(CC(=O)Nc2ccccc2)S/C1=N/c1nccs1 (stereo not given)
    ·, 0%, ·, 6%, 4%, 5%, 1%, -11%
Cc1nnc2ccc(N3CCN(c4cccc(C(F)(F)F)c4)CC3)nn12
    -2.3%, -12%, ?, ·, ·, -20%, -4%, ?
Cc1cc(C)cc(N(CC(=O)NCC2CCCO2)S(=O)(=O)c2c(C)noc2C)c1 (stereo not given)
    6.9%, 2%, 14%, ·, ·, -5%, -15%, -19%
CNC(=O)c1ccc(NC(=O)c2cccc(C(F)(F)F)c2)cc1
    ·, 0%, ·, -3%[14.2 µM], 1%, ·, 8%, -1%
CC(C)C(=O)Nc1ncc(Cc2ccc(Cl)cc2)s1
    ·, -1%, ·, -24%[46.1 µM], -17%, -5%, ?, -20%
Cc1nn(Cc2c(Cl)cccc2Cl)c(C)c1NC(=O)CCCn1nc(C)c([N+](=O)[O-])c1C
    -0.9%, -4%, 18%, ?, ?, ?, -15%, -8%
Cc1ccc(C)c(NC(=O)C2C3C=CC(O3)C2C(=O)O)c1 (stereo not given)
    ·, -22%, ·, -2%, 15%, 12%, -3%, -3%
CCCCC(=NCCO)C1=C(O)C(C(=O)OC)C(C)(C)CC1=O (stereo not given)
    3.1%, 2%, 7%, 10%, 29%, -10%, 10%, 0%
CSc1ccc(CNC(=O)c2cc3c(=O)n(Cc4ccco4)ccc3nc2C)cc1
    -1.0%, ·, ?, ·, ?, ·, ·, -19%
COc1ccc(-c2nc3c4ccccc4n(CC(=O)N4CCN(c5ccccc5OC)CC4)c(=O)n3n2)cc1
    1.3%, ·, -1%, ·, -20%[46.1 µM], ·, ·, 15%
Cc1ccc(/C=N/NC(=O)Cn2cnc3ccccc32)cc1
    ·, -10%, ·, -21%[46.1 µM], ?, 1%, 3%, 3%
COc1ccc(N(CN2C(=O)c3ccccc3C2=O)C(=O)COc2ccc(Cl)cc2Cl)cc1
    -6.0%, 13µM*, -12%, -28%, -7%, -14%, -6%, 40%[activator]

Further compounds:
smiles,Cruzain Triton,SARS PLpro yeast,Cruzain inh noDet,Marburg entry inh,LASV entry inh,NS1 function inh,RE007 growth inh,2A StopGo
CCOc1cc(-c2nnc(SCC(=O)NCc3ccc(C)cc3)nc2-c2ccc(OC)c(OCC)c2)ccc1OC,0.5%,·,-4%,·,?,·,·,-14%
COc1ccc(CCn2c(=N)c(C(=O)NCc3ccco3)cc3c(=O)n4ccccc4nc32)cc1,-2.3%,-6%,-16%,21µM*,-26%[14.3 µM],18%,7%,-2%
COc1ccc(/C=C/c2nnc(NC(=O)COc3ccccc3)s2)cc1,·,-1%,·,13%[46.1 µM],18%,2%,-11%,-17%
O=C1C(Br)=C(c2ccccc2)C(c2ccccc2)=C1c1ccccc1,·,·,·,?,?,·,-14%,3.5µM*
Cc1cccn2c(Nc3ccccc3)c(-c3cccs3)nc12,-9.6%,·,-4%,-11%[46.1 µM],21%[46.1 µM],·,·,-7%
CC1(C)CC(=O)C2=C(C1)NC(=O)CC2c1ccccc1F (stereo not given),1.8%,-3%,1%,21%,-5%,-2%,-9%,-26%
Cc1ccc(CCN2CC(C(=O)NCCCN(C)Cc3ccccc3)CC2=O)cc1 (stereo not given),3.4%,-10%,8%,-20%,13%,-12%,5%,-19%
Cc1cccc(C(=O)N2CCc3ccccc3C2)c1[N+](=O)[O-],·,-2%,·,-12%[46.1 µM],0%[46.1 µM],-8%,-18%,-7%
CC(C)C[C@H](NC(=O)CCCn1nnc2ccccc2c1=O)C(=O)O,·,1%,·,·,·,3%,1%,-11%
CC(C)[C@H](N)c1nnc(SCc2ccc(Cl)cc2)o1,5.8%,3%,3%,-1%,5%,8%,1%,1%
CN(C)C(CNC(=O)c1ccc(C(F)(F)F)cc1)c1ccco1 (stereo not given),·,1%,·,·,·,13%,0%,24%
Cc1ccc(NC(=O)Nc2nnc(-c3ccccc3F)s2)cc1,·,2%,·,-2%,9%,-4%,-13%,66%[activator]
Cc1nc2sc(C(=O)Nc3ccccc3Cc3ccccc3)c(C)c2c(=O)[nH]1,·,1%,·,·,·,2%,0%,-13%
COc1ccc(/C(C)=C2/SC(=S)N(CCC(=O)O)C2=O)cc1,-5.0%,-1%,2%,13%,5%,-7%,12%,138%[activator]
O=C(O)c1cccc(Nc2nc(-c3cc4ccccc4oc3=O)cs2)c1,·,1%,·,?,?,20%,4%,0%
Cc1ccc(NC(=O)Cn2c(=O)n(CCCCCC(=O)NCc3ccc(F)cc3)c(=O)c3sccc32)cc1C,-0.5%,·,-13%,-2%[46.1 µM],6%[46.1 µM],·,·,-19%
CN(C)c1nc(N(C)C)nc(N2CCCCC2)n1,-1.4%,5%,3%,-10%,-14%,-8%,1%[3.69 µM],1%
Cc1cc(SCC(=O)N2CCC(c3noc4ccc(F)cc34)CC2)nc2ccccc12,-1.8%,-2%,-13%,0%,1%,-4%,7%,?
Cc1cccc(-c2nc(CN3CCCC(C(=O)NC4CCCCCC4)C3)c(C)o2)c1 (stereo not given),3.7%,1%,4%,?,?,?,0%,?
O=C(NNC(=S)Nc1ccccc1C(F)(F)F)c1cccnc1,·,0%,·,2%[14.2 µM],9%,4%,2%,10%
O=C(c1ccc(Br)cc1)c1cc([N+](=O)[O-])ccc1N1CCCCC1,-3.0%,-11%,-25%,0.73µM*,?,24%,11%,-28%
COc1ccc(NC(=S)NCc2cccs2)cc1,·,1%,·,19%[46.1 µM],29%,-4%,21%,51%[activator]
COc1nc(NCC2CCCO2)nc(N2CC3CC(C2)c2cccc(=O)n2C3)n1 (stereo not given),·,1%,·,·,·,3%,-11%,-15%
O=C(C[n+]1cc(Br)cc(Br)c1)c1cccc([N+](=O)[O-])c1,·,0%,·,-1%[46.1 µM],-9%,?,-11%,0%

One compound at a time, as listed above.
COc1nc(NCC2CCCO2)nc(N2CC3CC(C2)c2cccc(=O)n2C3)n1 (stereo not given) in the list: Cruzain Triton = ·; SARS PLpro yeast = 1%; Cruzain inh noDet = ·; Marburg entry inh = ·; LASV entry inh = ·; NS1 function inh = 3%; RE007 growth inh = -11%; 2A StopGo = -15%
COc1ccc(NC(=S)NCc2cccs2)cc1 in the list: Cruzain Triton = ·; SARS PLpro yeast = 1%; Cruzain inh noDet = ·; Marburg entry inh = 19%[46.1 µM]; LASV entry inh = 29%; NS1 function inh = -4%; RE007 growth inh = 21%; 2A StopGo = 51%[activator]
